# TAR Tat displ: TAR RNA-Tat peptide displacers, HIV-1, primary screen, biochemical, FRET, FAM/TAMRA-labeled Tat. HIV-1 TAR RNA, Tat peptide displacement FRET; active compounds read high. z-score (concentration not given with the values). actives 0.6% (n = 100,000). AID 1259389, 2018;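 note: score is relative to mean and SD of negative controls; some compounds called inactive have numbers as strong as hits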
# CDC25B CDK2 inh: primary biochemical HTRF screen for blockers of M-phase inducer phosphatase 2 binding to CDK2/cyclin A; AID 1259370, 2018; actives 0.72% (n = 94,000); z-score (no concentration beside the values); P30305+P24941; HTRF CDC25B-CDK2/CyclinA binding, anti-His/anti-Flag; active compounds read high;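 note: score is relative to mean and SD of negative controls; strong numbers were not always called active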
# An asterisk follows results filed as active; · = no result given.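 Rule for the calls: active = z-score from 3 up in half or more of its runs; inactive = the rest.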
SMILES,TAR Tat displ,CDC25B CDK2 inh
Cc1nc(N2CCc3ccccc3C2)c2c3c(sc2n1)CCCC3,·,-3.71
COC(=O)c1ccc2c(=O)n3nc(NCc4ccccc4)sc3nc2c1,0.95,·
O=C(c1cc2c(s1)-c1ccc(Cl)cc1S(=O)(=O)C2)N1CCCCC1,-0.44,-2.93
CCOC(=O)C1CCN(c2c(N3CCN(C(=O)OCC)CC3)c(=O)c2=O)CC1,-0.35,-1.6
COc1ccc(S(=O)(=O)Nc2ccc3c(c2)n(C)c(=O)c(=O)n3C)cc1OC,0.26,·
CC(C)CC(=O)n1nc(-c2ccco2)nc1NCc1cccs1,-0.24,-1.54
Clc1ccc(-c2noc(-c3cccs3)n2)cc1,-0.72,-2.6
O=c1c(NC2CCN(Cc3ccccc3)CC2)c(-c2ccccc2)c1=O,2.19,·
Cc1noc(/C=C/c2ccc(S(=O)(=O)N3CCOCC3)cc2)c1[N+](=O)[O-],0.32,·
CCCCC#Cc1ccc(C(=O)O)o1,·,-0.98
Cn1c(=O)c(=O)n(C)c2cc(N3CCOCC3)c(NC(=O)c3cccs3)cc21,-0.15,·
COc1cc(-c2cc(NC(=O)c3cc4c(=O)oc5ccc(C)cc5c4s3)on2)cc(OC)c1OC,·,-0.72
CCCOC(=O)CSc1ncnc2sc(C)c(C)c12,·,-2
O=C1C2C3C=CC(C3)C2C(=O)N1c1ccc(O)cc1 (stereo not drawn),·,-1.53
Cc1cc2nc(SCCN3CCOCC3)[nH]c2cc1C,1.22,-0.53
Cc1ccc(Nc2nc(N3CCOCC3)nc3c2cnn3C)c(C)c1,0.81,·
COC(=O)C1C(=O)C2=C(CC1C)NC(=O)CC2c1ccc(O)c(OC)c1 (stereo not drawn),2.94,-1.06
O=C(NCc1cc2ccccc2s1)C1CN(C(c2ccccc2)c2ccccc2)C1,·,-1.94
COc1ccc(C2Nc3c(C)cc(C)cc3-c3cc(C)nn32)cc1O (stereo not drawn),0.94,-2.03
CC1CC(C)CN(C(=O)c2cc3sccc3n2C)C1 (stereo not drawn),-0.26,-2.53
Cc1cc2oc3c(c(=O)c2cc1C)C(c1ccc(O)cc1)N(CCCN1CCOCC1)C3=O (stereo not drawn),0,-0.21
CCC(NC1CS(=O)(=O)CC1O)C(=O)O (stereo not drawn),-1.7,-0.94
COc1ccc(Cn2nnc3c(C)nn4c(-c5ccc(Cl)cc5)nnc4c32)cc1,2.06,-2.85
Cc1cc(CN2CCN(c3ccccc3F)CC2)cs1,1.17,·
Nc1ncncc1-c1ccc(Cl)cc1,·,-0.25
CN(CC(=O)Nc1cccnc1)S(=O)(=O)c1ccc2[nH]c(=O)ccc2c1,-0.55,·
COc1ccc(/C(O)=C2/C(=O)C(=O)N(CCCN(C)C)C2c2cccnc2)cc1 (stereo not drawn),0.72,-0.39
Cc1cc(=O)oc2cc(OC(=O)c3ccco3)ccc12,·,0.92
CC1Cc2cc(S(=O)(=O)Nc3cccc(F)c3)ccc2N1C(=O)C1CCC1 (stereo not drawn),0.88,·
CCCc1nc(SCC(=O)N2CCN(c3ccccc3)CC2)c2c(=O)n(C)c(=O)n(C)c2n1,0.26,·

# Ordered by molecular weight (high to low): 19 of the compounds above
SMILES,TAR Tat displ,CDC25B CDK2 inh
CCCc1nc(SCC(=O)N2CCN(c3ccccc3)CC2)c2c(=O)n(C)c(=O)n(C)c2n1,0.26,·
Cc1cc2oc3c(c(=O)c2cc1C)C(c1ccc(O)cc1)N(CCCN1CCOCC1)C3=O (stereo not drawn),0,-0.21
COc1ccc(Cn2nnc3c(C)nn4c(-c5ccc(Cl)cc5)nnc4c32)cc1,2.06,-2.85
Cn1c(=O)c(=O)n(C)c2cc(N3CCOCC3)c(NC(=O)c3cccs3)cc21,-0.15,·
COc1ccc(/C(O)=C2/C(=O)C(=O)N(CCCN(C)C)C2c2cccnc2)cc1 (stereo not drawn),0.72,-0.39
CC1Cc2cc(S(=O)(=O)Nc3cccc(F)c3)ccc2N1C(=O)C1CCC1 (stereo not drawn),0.88,·
Cc1noc(/C=C/c2ccc(S(=O)(=O)N3CCOCC3)cc2)c1[N+](=O)[O-],0.32,·
CN(CC(=O)Nc1cccnc1)S(=O)(=O)c1ccc2[nH]c(=O)ccc2c1,-0.55,·
COC(=O)C1C(=O)C2=C(CC1C)NC(=O)CC2c1ccc(O)c(OC)c1 (stereo not drawn),2.94,-1.06
Cc1ccc(Nc2nc(N3CCOCC3)nc3c2cnn3C)c(C)c1,0.81,·
COc1ccc(C2Nc3c(C)cc(C)cc3-c3cc(C)nn32)cc1O (stereo not drawn),0.94,-2.03
CCCOC(=O)CSc1ncnc2sc(C)c(C)c12,·,-2
Cc1cc2nc(SCCN3CCOCC3)[nH]c2cc1C,1.22,-0.53
Cc1cc(CN2CCN(c3ccccc3F)CC2)cs1,1.17,·
Cc1cc(=O)oc2cc(OC(=O)c3ccco3)ccc12,·,0.92
O=C1C2C3C=CC(C3)C2C(=O)N1c1ccc(O)cc1 (stereo not drawn),·,-1.53
CCC(NC1CS(=O)(=O)CC1O)C(=O)O (stereo not drawn),-1.7,-0.94
Nc1ncncc1-c1ccc(Cl)cc1,·,-0.25
CCCCC#Cc1ccc(C(=O)O)o1,·,-0.98

# (cont.)
SMILES,TAR Tat displ,CDC25B CDK2 inh
CCC(=O)Nc1ncc2c(n1)CC(c1ccco1)CC2=O (stereo not drawn),·,1.75
CCOC(=O)C1CCCN(C(=O)Cn2cnc(S(=O)(=O)N3CCCC3)c2)C1 (stereo not drawn),0.42,·
COc1cc(C)c(C)cc1S(=O)(=O)NCCc1csc2nc(-c3cccs3)nn12,0.17,·
CCOC(=O)c1ccc(NC(=O)C(=S)NCc2ccccc2)cc1,·,-1.22
Cc1ccc(Cl)cc1N1CCN(CC(=O)c2ccc3c(c2)CCN3)CC1,-0.2,-0.75
CCOc1ccc(Nc2c3c(nc4ncnn24)CCC3)cc1,1.97,·
Cc1noc(C)c1S(=O)(=O)NCCc1sc2nc(-c3ccc(F)cc3)nn2c1C,1.06,·
CN(C)CCCN(C(=O)c1cccs1)c1nc2ccc(F)cc2s1,0.85,·
CCc1nn2c(=O)cc(CSc3nc(-c4ccccc4)nc4cc(=O)[nH]n34)nc2s1,-0.17,·
Cc1ccc(-c2noc(CNS(=O)(=O)c3ccc(Br)cc3)n2)cc1,2.68,-0.31

# High-throughput results (PubChem BioAssay)

# This is a random part of the collection; overall some 0.97% were active at least once.
